Compound activity (PubChem BioAssay)
KCNQ2 enhance: enhances the rat KCNQ2 potassium channel; O88943; CHO-K1 KCNQ2, FluxOR thallium flux fluorescence; hits give high values; B-score at 10 µM; hit rate 0.54% among 310,000; AID 2239;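 active = fluorescence ratio B-score at least 3 SD of library B-scores, with initial fluorescence B-score within 3 SD, cut at about 5.3 in these data; same plate scores as AID 2156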;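 also: B-score of peak minus minimum over baseline fluorescence ratio after K+ and Tl+ stimulus; positive B-score means potentiation of KCNQ2 with more thallium influx and brighter signal; only the inactives scoring about 0 or higher are listed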
Target sequence (O88943 whole entry, looked up): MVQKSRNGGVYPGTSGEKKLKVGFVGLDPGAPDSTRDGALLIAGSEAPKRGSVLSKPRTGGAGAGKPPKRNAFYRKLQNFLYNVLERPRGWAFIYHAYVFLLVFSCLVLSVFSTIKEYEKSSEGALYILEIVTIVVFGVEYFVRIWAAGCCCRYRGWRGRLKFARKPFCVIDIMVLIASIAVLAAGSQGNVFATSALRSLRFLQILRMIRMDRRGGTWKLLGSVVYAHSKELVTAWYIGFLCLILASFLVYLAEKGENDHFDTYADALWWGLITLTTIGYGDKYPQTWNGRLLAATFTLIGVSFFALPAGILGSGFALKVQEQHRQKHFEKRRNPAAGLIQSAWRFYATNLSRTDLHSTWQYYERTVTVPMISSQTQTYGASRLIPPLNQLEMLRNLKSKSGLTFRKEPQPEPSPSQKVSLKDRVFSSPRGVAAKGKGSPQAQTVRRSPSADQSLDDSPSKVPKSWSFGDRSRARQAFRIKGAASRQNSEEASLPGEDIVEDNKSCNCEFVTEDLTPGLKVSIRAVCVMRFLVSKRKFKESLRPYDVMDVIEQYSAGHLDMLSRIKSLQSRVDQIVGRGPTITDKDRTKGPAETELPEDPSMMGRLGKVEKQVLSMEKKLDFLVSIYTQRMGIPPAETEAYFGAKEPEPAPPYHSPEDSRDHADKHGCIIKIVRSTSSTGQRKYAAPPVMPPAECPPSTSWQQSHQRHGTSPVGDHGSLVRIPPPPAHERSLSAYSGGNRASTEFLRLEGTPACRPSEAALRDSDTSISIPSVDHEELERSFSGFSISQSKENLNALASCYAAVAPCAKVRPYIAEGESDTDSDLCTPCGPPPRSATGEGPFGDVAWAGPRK
KCNQ2 enhance baseline: further read-out of KCNQ2 enhance, marked with its call; B-score; compound at 10 µM; measured here: initial fluorescence intensity artifact check;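 brightness before thallium and not channel activity; 0 = typical well and far values either way flag optical interference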
* marks the source's active call; other numbers are inactive results.

The first 3 entries, to show the layout:
KCNQ2 enhance,KCNQ2 enhance baseline,compound
1.1,-0.51,O=C(NCCO)c1ccc2c3n(nc2c1)-c1ccccc1CO3
0.4,-1.8,COc1ccc(-c2ccc(/C=N/NC(=O)c3cccnc3)o2)c([N+](=O)[O-])c1
0.96,-1.7,O=S(=O)(c1ccc(NC(=S)NCc2ccc(F)cc2)cc1)N1CCOCC1

Results, previewed entries included:
KCNQ2 enhance,KCNQ2 enhance baseline,compound
1.1,-0.51,O=C(NCCO)c1ccc2c3n(nc2c1)-c1ccccc1CO3
0.4,-1.8,COc1ccc(-c2ccc(/C=N/NC(=O)c3cccnc3)o2)c([N+](=O)[O-])c1
0.96,-1.7,O=S(=O)(c1ccc(NC(=S)NCc2ccc(F)cc2)cc1)N1CCOCC1
2,0.5,CN1CCN(C(=O)c2cc(=O)c3cc(Cl)cc(Cl)c3o2)CC1
1.8,1,Cc1cc(C)n(-c2ccc(C(=O)OCC(=O)NCc3ccc(Cl)cc3)cc2)n1
0.35,0.35,O=C(N/N=C/c1cccnc1)c1ccc(NC(=O)c2ccccc2Cl)cc1
2.7,0.79,O=C(NC(=S)Nc1cccnc1Cl)c1ccco1
0.51,0.18,COC(=O)c1ccc2c(=O)[nH]c(CN3c4ccccc4CC3C)nc2c1 (stereo not given)

Six structures already listed, ordered by molecular weight, low to high:
KCNQ2 enhance,KCNQ2 enhance baseline,compound
2.7,0.79,O=C(NC(=S)Nc1cccnc1Cl)c1ccco1
1.1,-0.51,O=C(NCCO)c1ccc2c3n(nc2c1)-c1ccccc1CO3
0.51,0.18,COC(=O)c1ccc2c(=O)[nH]c(CN3c4ccccc4CC3C)nc2c1 (stereo not given)
0.4,-1.8,COc1ccc(-c2ccc(/C=N/NC(=O)c3cccnc3)o2)c([N+](=O)[O-])c1
0.35,0.35,O=C(N/N=C/c1cccnc1)c1ccc(NC(=O)c2ccccc2Cl)cc1
0.96,-1.7,O=S(=O)(c1ccc(NC(=S)NCc2ccc(F)cc2)cc1)N1CCOCC1

Next results follow:
KCNQ2 enhance,KCNQ2 enhance baseline,compound
1.6,-0.53,CC(C)N(CC#CCC1(O)c2ccccc2-c2ccccc21)CCO
0.53,0.54,Cc1ccc(NC(=O)COC(=O)C2CSC3(C)CCC(=O)N23)cc1S(=O)(=O)N1CCOCC1 (stereo not given)
0.01,1.5,CC(=O)O[C@@H]1C[C@H]2C(C)=C[C@H]3OC(=O)[C@@H](C)[C@H]3C[C@H]2[C@]1(C)O
0.63,-0.74,Cc1onc(-c2c(F)cccc2Cl)c1C(=O)NC1CC1
1.2,0.76,S=C1Nc2ccccc2Sc2ccc(Cl)cc21
0.68,1,CCOC(=O)/C(C#N)=C/c1c(N2CCN(C)CC2)nc2ccccn2c1=O
0.41,0.23,COc1ccc(OC)c(Nc2nc(N)nc(CCl)n2)c1
0.88,1.3,CN(C)/C=C/C(=O)c1ccn(S(=O)(=O)c2ccccc2)c1
0.23,0.39,CCOC(=O)c1c(NC(=O)C2C3CCC(O3)C2C(=O)O)sc(C)c1-c1ccc(F)cc1 (stereo not given)
0.17,-1.9,CN(C)c1ccc(NC(=O)COC(=O)c2cc(Cl)ccc2[N+](=O)[O-])cc1
0.86,-0.11,COC(=O)CN1C(=O)c2cccc3cccc1c23
0.12,0.04,NC(=O)CN1CCN(C(=O)NC2CCCCC2)CC1
1.1,-0.06,Cc1ccc(NC(=S)NC(=O)c2ccc(-c3ccc(Cl)cc3)o2)c(O)c1
0.75,1.9,Nn1cc(-c2ccccc2)nc1SCC(=O)NCC(F)(F)F
0.41,0.66,COC(=O)[C@]1(C)N[C@H](c2ccc(-c3ccc(F)cc3)cc2)[C@@H]2C(=O)N(C)C(=O)[C@@H]21
0.2,0.18,CCOC(=O)N1CCN(C(=O)CSc2ccc(Cl)cc2)CC1
2.4,-1.2,NS(=O)(=O)c1ccc(NCc2cc(Cl)ccc2OCc2ccccc2F)cc1
0.05,2.8,Cc1ccc(C(=O)Nc2ccnc(-c3cccnc3)n2)cc1
0.41,0.32,Cn1c(SCC(=O)NC2CCCCC2)nnc1-c1ccc(N)cc1
0.04,1.7,CC1CCCN(C(=O)CSc2nnc(-c3ccncc3)n2C)C1 (stereo not given)
0.14,0.76,O=C(Nc1nc2ccc(Cl)cc2s1)[C@@H]1CCCN1C(=O)c1cccs1
0.18,0.73,Cc1nn(Cc2ccc(F)cc2)c(C)c1NC(=O)c1cccnc1Cl
0.98,-1.4,Nc1cccc2[nH]c(C(F)(F)F)nc12
0.35,-0.1,Cc1ccc(Sc2c(O)c3ccccc3n(C)c2=O)cc1
1.2,0.01,O=C(NCCc1c[nH]c2ccccc12)C(=O)NCC(c1cccnc1)N1CCN(c2ccccc2)CC1 (stereo not given)
0.54,-1.1,CCOc1ccc(NC(=O)c2ccccc2NS(=O)(=O)c2ccc(F)cc2)c([N+](=O)[O-])c1
0.05,0.27,CCCC(=O)Nc1ccc(-c2nc3cc(C)c(C)cc3o2)c(O)c1
0.03,-0.52,Nn1c(SCC(=O)N2CCOCC2)nnc1-c1ccco1
1.6,0.55,CS(=O)(=O)c1ccc(Cl)c(NC(=O)CCNC(=O)c2ccco2)c1
0.51,0.27,O=C(CSc1nnc2ccc(-c3ccc(F)cc3)nn12)N1CCCC1
0.83,-0.74,CCc1nnc(NC(=O)c2cccc(NC(=O)C(C)C)c2)s1
1.5,-2.7,O=C(Cn1nc(-c2cccc([N+](=O)[O-])c2)c2ccccc2c1=O)NCC1CCCO1 (stereo not given)

Reprinted from above for reference:
KCNQ2 enhance,KCNQ2 enhance baseline,compound
1.2,0.01,O=C(NCCc1c[nH]c2ccccc12)C(=O)NCC(c1cccnc1)N1CCN(c2ccccc2)CC1 (stereo not given)
0.54,-1.1,CCOc1ccc(NC(=O)c2ccccc2NS(=O)(=O)c2ccc(F)cc2)c([N+](=O)[O-])c1

Additional records:
KCNQ2 enhance,KCNQ2 enhance baseline,compound
0.54,0.02,CCCc1nc2sc3c(=O)n(N)cnc3c2c2c1COC(C)(C)C2
1.5,-0.57,COCCn1nnnc1C(c1ccc(OC)c(OC)c1)N1CCN(C(=O)c2ccco2)CC1 (stereo not given)
0.35,-0.22,CCCN(CCC)S(=O)(=O)c1cccc(C(=O)N=c2sccn2C)c1
2,-0.06,Cc1cc(NC(=O)CCCC(=O)Nc2ccc(F)cc2)no1
4.2,-0.22,O=C(O)c1ccc(N/N=C/c2ccc(-c3ccccc3Cl)o2)cc1
0.17,0,COc1ccc(C(=O)Nc2nnc(SCC(=O)Nc3ccc(NC(C)=O)cc3)s2)c(OC)c1
0.09,-0.47,O=C(Nc1ccc2nc3n(c(=O)c2c1)CCCC3)c1ccccc1F
0.55,-1.8,CCn1ccc(C(=O)N2CCN(c3ncccn3)CC2)n1
0.14,0.16,CCCOc1ccc(Cc2nc(N)nc(N)n2)cc1
1.7,0.75,CCn1c(SCC(=O)Nc2ccc(OC)c(OC)c2)nnc1-c1c[nH]c2ccccc12
1.3,-0.49,CCn1c(CNC(=O)c2ccc(OC)cc2)nnc1SC
1.1,1.5,CSc1cccc(NC(=O)CCC(=O)O)c1
0.97,-0.2,COc1cc(/C=N/NC(=O)CN2CCCCC2)ccc1OCc1ccccc1
0.16,0.67,CCN(C(=O)COC(=O)c1ccc2[nH]c3c(c2c1)CCCC3)C1CCS(=O)(=O)C1 (stereo not given)
0.41,-1.6,Cc1ccc2c(C)c(C(=O)Nc3ccc(S(N)(=O)=O)cc3)oc2c1C
2,-0.16,O=C(c1cc(COc2ccc3ncccc3c2)on1)N1CCCC1
0.58,-2.6,CNC(=O)COC(=O)c1cc(NC(=O)c2ccco2)c(OC)c(OC)c1
0.68,0.01,O=C(COC(=O)c1nc(Cl)ccc1Cl)Nc1ncc(Cl)cc1Cl
1.4,2.5,Cc1c(Br)c([N+](=O)[O-])nn1CC(=O)NC1CCCCCC1
11*,-0.06*,N/C(=N\OC(=O)CCC1CCCCC1)c1cccc([N+](=O)[O-])c1
1.9,0.05,COc1ccc(CNC(=O)Nc2cccs2)cc1OC
0.59,1.7,COc1ccc(S(=O)(=O)Nc2ccc3c(c2)OCCO3)cc1OC
0.56,0.95,CN(C)c1ccc(/C=N/NC(=O)c2ccco2)cc1
1.1,1.2,COc1cccc(CNc2ncnc3cc(OC)c(OC)cc23)c1
0.22,-0.01,O=C(N/N=C/c1ccncc1)c1ccc(NC(=O)c2cccc(Cl)c2)cc1
1.2,2.2,Cc1c(C(=O)OCC(=O)Nc2ccc(N3CCOCC3)cc2)oc2ccccc12
0.03,-0.88,CC(=O)Nc1ccc(-c2cn3cc(C)ccc3n2)cc1
0.66,0.43,O=C(CCn1c(=O)c2ccccc2n(CC(=O)NC2CCCC2)c1=O)NCc1ccco1
1.5,-1.3,CCN(C(=O)COC(=O)CSc1cc(C)c2ccccc2n1)c1ccccc1
0.4,-1.4,COc1cc(OC)cc(C(=O)NNC(=O)c2cc(=O)[nH]c3ccccc23)c1
0.19,-0.36,NC(=O)CC(NC(=O)Cc1cccc2ccccc12)c1ccc(NC2CCC2)c([N+](=O)[O-])c1 (stereo not given)
0.03,-1.4,CCOC(=O)Cc1csc(NC(=O)CCCc2ccccc2)n1
1.4,3,COC(=O)CSc1nnc(-c2ccco2)n1-c1ccc(C)cc1
1.4,-1.9,O=C(NCc1ccc(Cl)cc1)c1cc2c(nc3sccn32)s1
2.2,0.22,Nc1ncnc2c1ncn2C1CCC(CO)C(O)C1 (stereo not given)
1.6,0.77,COc1cccc(-c2nnc(NC(=O)C3CCCCC3)o2)c1
0.01,-1.4,Cc1sc2nc3c(SC(C)C(=O)O)cc(C(=O)c4ccccc4O)cn3c(=O)c2c1C (stereo not given)
0.4,1.1,COc1ccc(Cl)cc1NC(=O)C1CC(=O)N(c2ccc(F)cc2)C1 (stereo not given)
0.64,0.83,O=C1CN(S(=O)(=O)c2ccc([N+](=O)[O-])cc2)CC(=O)N1
0.01,-1.2,Clc1ccc(-c2nc3ncccn3c2Nc2ccc3c(c2)OCO3)cc1
1.4,-0.25,Cc1ccc(SCC(=O)NNC(=O)c2ccc(S(C)(=O)=O)cc2)cc1
1.8,0.31,CCOc1ccc(C(C)=O)cc1CSc1nnc(N)s1
2,0.12,Cc1cc(C)c(NC(=O)CSc2nc3ccc(N4C(=O)c5ccccc5C4=O)cc3s2)c(C)c1
0.37,2,C=C(C)CSc1[nH]c(=O)cc(C)c1C#N
0.32,0.45,COc1ccc(OC)c(Cc2nnc(CCC(=O)NC3CCCCC3)o2)c1
0.39,1.1,COc1ccc(NS(=O)(=O)c2ccc(N3CCN(CCO)CC3)c([N+](=O)[O-])c2)cc1
0.47,-1.7,CC(=O)c1ccc(NC(=S)NC2CCCC(C)C2C)cc1 (stereo not given)
18*,1.2*,CCn1c(=O)c(C(=O)NCc2ccccn2)c(O)c2ccccc21
0.05,-0.54,Cc1nc(Cl)c(C(=O)NC(=O)NCc2ccccc2)c(C)c1Cl
1,-0.34,CC(=O)c1sc2nc(CSc3nncn3C)[nH]c(=O)c2c1C
0.37,-1.2,CCOc1ccc(CC(=O)Nc2c(C(N)=O)oc3ccccc23)cc1OCC
0.73,-1.5,COc1cc(C(=O)N2CCC(n3c(C)nc4cc(F)ccc43)CC2)cc(OC)c1OC
0.05,0.87,COc1ccc(-n2c(COc3ccccc3)nnc2SCc2ccc(C#N)cc2)cc1
0.35,1.2,O=S(=O)(c1cccs1)N1CN(CC2CCCO2)c2nc3ccccc3nc21 (stereo not given)
0.83,0.05,CC(C)c1ccc(OCC(=O)Nc2ccccc2C(=O)N2CCOCC2)cc1
0.29,0,Cc1oc(-c2ccccc2F)nc1CS(=O)(=O)CC(=O)N1CCOCC1

(cont.)
KCNQ2 enhance,KCNQ2 enhance baseline,compound
0.03,-0.23,Cc1ccccc1N1C(=O)N(c2cccc(C(F)(F)F)c2)C2CS(=O)(=O)CC21 (stereo not given)
0.97,-2.1,Nc1cccc(-c2nc3ncccc3o2)c1
0.56,0.03,Cn1c(=O)cc(Nc2ccccc2)[nH]c1=O
2.1,0.25,Cc1ccc(NC(=O)c2cc(N3C(=O)C=CC3=O)ccc2N2CCOCC2)cc1Cl
0.95,1.9,CCCn1c(C)cc(C(=O)COC(=O)c2ccc[nH]c2=O)c1C
0.63,-0.39,CCCc1cc(=O)oc2cc(OC(C)C(=O)NC3CC(C)(C)NC(C)(C)C3)ccc12 (stereo not given)
0.23,-0.72,CCN(CC)CCNC(=O)c1cc2cc(Br)ccc2s1
0.85,0.03,COc1ccc(C(=O)NCc2nnc(SCC(=O)N3CCOCC3)o2)cc1OC
1.3,-0.1,CCOC(=O)CNC(=O)CCc1nnc2ccc(N3CCC(C)CC3)nn12
0.53,-0.64,C=CCOc1ccc(S(C)(=O)=O)cc1
0.01,0.74,COc1ccc(C2CC(c3ccc(Br)cc3)=NN2C(=O)c2cccnc2)cc1 (stereo not given)
0.53,0.07,CCOC(=O)/C(N=Nc1ccc(F)cc1)=C(/O)c1ccc([N+](=O)[O-])cc1
1.1,-0.02,Cc1ccc(C)c(/C(O)=C2\C(=O)C(=O)N(Cc3cccnc3)C2c2cccnc2)c1 (stereo not given)
2.1,-0.29,O=C(Nc1cnn(Cc2ccccc2)c1)NC12CC3CC(CC(C3)C1)C2
0.99,-0.82,COc1ccc2c(c1OC)C(=O)OC2Nc1nc(-c2ccc([N+](=O)[O-])cc2)cs1 (stereo not given)
1.1,0.24,CCOc1ccc(-n2nnnc2SCC(=O)Nc2cccc(O)c2)cc1
0.89,-0.51,NS(=O)(=O)c1ccc(CCNC(=O)CCCC2=NS(=O)(=O)c3ccccc3N2)cc1
1.1,-1.3,CCN(CC)c1nc(OC)nc(-n2nnc(C(C)=O)c2C)n1
0.51,-0.72,O=C(CCNC(=O)Cn1ccc2ccccc2c1=O)NCCc1ccc(Cl)cc1
0.97,-0.37,COC(=O)c1cc(C(=O)OCC(=O)NC(=O)c2ccccc2)cc([N+](=O)[O-])c1
2.1,-2,CC(C)c1onc(C(=O)NC(C)c2ccccc2)c1[N+](=O)[O-] (stereo not given)

A portion of the library. The share of hits here may be higher or lower than overall.
